ClpP mod = qHTS Assay for Activators of ClpP | purified B. subtilis ClpP, FRET peptide cleavage, 20 min | AID 651965, 2013 | Potency, µM (doses to about 57.5 µM), inactives show top-dose activity change, negative = active | 340,000 compounds, 1.9% hits; active = well fitted falling curve with a large enough effect; inconclusive = small, poorly fitted or top-dose-only effect; inactive = no such curve, though single readings can be large or run the other way; further: the source files actives as falling curves though it sought activators and does not explain the sign; nearly all actives have a fitted effect of over 65% in size; many hits overshoot -100%
Target sequence (P80244 whole entry, looked up): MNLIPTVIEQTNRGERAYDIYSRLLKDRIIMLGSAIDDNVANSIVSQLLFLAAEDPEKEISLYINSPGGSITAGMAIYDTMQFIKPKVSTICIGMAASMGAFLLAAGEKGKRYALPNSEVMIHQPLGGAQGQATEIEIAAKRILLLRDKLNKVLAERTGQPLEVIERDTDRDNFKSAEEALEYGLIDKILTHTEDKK
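FRET quenching reversal measured ClpP activation: 10 microg/mL B. subtilis ClpP at pH 8 with the FRET-FV decapeptide, read at 430 nm after 320 nm excitation. The 20-min minus 0-min signal was scaled between DMSO/no-enzyme wells and ADEP (5.8 microM final).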
* = called active by the depositor; ? = inconclusive. Potency means the concentration at half of the fitted maximal effect. The list is partial; count on the stated rates, not on these rows.

SMILES | ClpP mod
Cn1cnc2c(=O)oc3ccc(S(=O)(=O)N4CCN(c5ccccc5)CC4)cc3c21 | 2.8%
Cc1ccc(C2c3[nH]c4ccccc4c3CCN2C(=O)c2cccc(C)c2)cc1 (stereo unspecified) | -2.1%
COc1ccc(NC(=O)Cn2c(=O)n(Cc3ccc(C(=O)NCc4ccccc4Cl)cc3)c(=O)c3ccccc32)cc1 | -5.2%
O=C(CSc1nc(=O)n(Cc2cccnc2)c2c1CCC2)Nc1ccc(F)cc1F | -8.4%
CC(C)(C)C1CCc2c(sc3nc(-c4cc5ccccc5oc4=O)[nH]c(=O)c23)C1 (stereo unspecified) | 2.2%
CCOc1cc(C#N)c(NC(=O)Cn2nnc(-c3ccc(C)cc3)n2)cc1OCC | -1.0%
Cc1c(-c2cccc(NC(=O)C(C)(C)C)c2)nc2ncccn12 | 4.8%
CCN(CC)CCCNC(=O)CN1N=C(c2ccccc2)CCC1=O | -1.4%
CCn1c(=O)cc(SCC(=O)NCc2ccc(Cl)cc2)c2ccccc21 | -21%
Cc1ccc2cc3cc(C(=O)N4CCN(c5ccc(Cl)cc5)CC4)oc3nc2c1 | 0.9%
CC1CCN(S(=O)(=O)c2ccc3c(c2)N(CC(=O)NCCN(C)C)C(=O)CO3)CC1 | 0.5%
COc1ccc(C(=O)NC(c2ccc(Cl)cc2)c2cc(Cl)c3cccnc3c2O)cc1 (stereo unspecified) | 2.5%
Cc1c(Cl)cccc1NC(=O)Cn1nc(C(F)(F)F)c2c1CCC2 | 0.6%
COc1ccc(NC(=O)c2c(-c3ccc(C)cc3)nnc3ccccc23)cc1OC | 0.9%
Cc1cccc(N2CCN(C(=O)CN3CCSc4ccccc43)CC2C)c1 (stereo unspecified) | 0.8%
CC(=O)c1ccc(NC(=O)CSc2nccn2Cc2ccc3c(c2)OCO3)cc1 | -1.9%
COc1ccc(C)cc1NC(=O)C(=O)NCCc1sc(-c2ccc(Cl)cc2)nc1C | -12%
Cc1cccc(NC(=O)C2CCN(S(=O)(=O)c3c(C)noc3/C=C/c3ccco3)CC2)c1 | -5.6%
CCC(=O)N1CCc2cc(S(=O)(=O)NC(CC(C)C)C(=O)NCCc3cccc(C)c3)ccc21 (stereo unspecified) | 1.3%
O=C(CSc1nccn1Cc1ccccc1)NCc1ccc(F)cc1 | -1.2%
O=C(COc1ccc(F)cc1)Nc1ccc(OCc2cc(=O)n3ccsc3n2)cc1 | -0.2%
COc1ccccc1OCc1nnc(-c2ccccc2)o1 | -0.3%
CCn1ccc2c(OCC(=O)Nc3ccc(C)c(Cl)c3)cccc2c1=O | -17%
COc1ccc2nc3sc(C(=O)Nc4ccccc4F)cc3cc2c1 | -9.4%
Cc1ccc(-n2c(=O)c3c(c4cc(C)ccc4n3C)n(CC(=O)Nc3c(C)cccc3C)c2=O)cc1 | -23%
COc1ccc(CC(=O)NCCc2sc3nc(-c4ccc(OC)cc4)nn3c2C)cc1 | -2.1%
Clc1ccc(N2CCN(c3ncnc4c3nc3n4CCCC3)CC2)cc1 | -0.1%
CCCn1c(-c2cccc(Br)c2)nc2ccccc21 | -24%
CCOc1ccccc1N(CC)C(=O)Nc1cn(C)c(=O)c2ccccc12 | 3.8%
COc1ccc(CC(=O)Nc2cc(-c3nc4cccnc4s3)ccc2C)cc1 | -7.4%

Some of these compounds in order of number of heavy atoms, rising:
SMILES | ClpP mod
COc1ccccc1OCc1nnc(-c2ccccc2)o1 | -0.3%
COc1ccc2nc3sc(C(=O)Nc4ccccc4F)cc3cc2c1 | -9.4%
CCn1ccc2c(OCC(=O)Nc3ccc(C)c(Cl)c3)cccc2c1=O | -17%
CCOc1ccccc1N(CC)C(=O)Nc1cn(C)c(=O)c2ccccc12 | 3.8%
COc1ccc(CC(=O)NCCc2sc3nc(-c4ccc(OC)cc4)nn3c2C)cc1 | -2.1%

Other structures follow.
SMILES | ClpP mod
Cc1ccccc1OCCSc1nnc(-c2ccc([N+](=O)[O-])cc2)o1 | 2.8%
CCC1CCc2c(sc(NC(=O)C3c4ccccc4Oc4ccccc43)c2C#N)C1 (stereo unspecified) | -9.1%
CCn1ccc2c(OCC(=O)NCc3ccc(F)cc3)cccc2c1=O | -27%
Cc1ccc(CN(C(=O)c2ccc(F)cc2)c2ccccn2)o1 | -0.5%
N#Cc1c(NC(=O)c2cc3nc(-c4ccc(Br)cc4)cc(C(F)(F)F)n3n2)sc2c1CCCC2 | 4.3%
Cc1cc(C)c(NC(=O)c2cc3c(=O)n4ccccc4nc3n2C)c(C)c1 | 4.2%
Cc1cccc(CNC(=O)CSCc2cnn(-c3ccccc3)c2-n2cccc2)c1 | 0.7%
Cc1cccc(N2CCN(c3ncnc4c3nc3n4CCCCC3)CC2)c1C | -2.3%
COc1ccc(OC)c(CNC(=O)c2cnc(N(C)C)nc2)c1 | -26%
COc1ccc(N2CCN(c3csc4ccccc4c3=O)CC2)cc1 | -16%
CCC(C(=O)NCCc1ccc(Cl)cc1)n1ccc2cc(S(=O)(=O)N3CCCCC3)ccc21 (stereo unspecified) | -4.7%
COc1ccc(-c2nnc(C3CCN(C(=O)c4ccccc4F)CC3)o2)cc1 | -4.9%
CCOC(=O)CC(NC(=O)c1cc2c(=O)n3cccc(C)c3nc2s1)c1ccc(OCC)c(OC)c1 (stereo unspecified) | -15%
Cc1ccc(C(=O)c2oc3ccccc3c2NC(=O)COc2ccc(C(C)C)cc2)cc1 | 6.3%
Fc1ccc(CNc2ncnc3c2c(-c2ccccc2)cn3-c2ccccc2)cc1 | ?
Cc1c(C(=O)OC2CCCCCC2)[nH]c2c1C(=O)CC(c1ccc(N(C)C)cc1)C2 (stereo unspecified) | -2.3%
COc1ccc(C(=O)NCC(c2cccs2)S(=O)(=O)c2ccc(F)c(C)c2)cc1 (stereo unspecified) | -1.8%
COc1ccc(S(=O)(=O)c2c(C(=O)c3ccc(C)c(C)c3)cnc3ccc(C)cc23)cc1 | -6.3%
COc1ccccc1OCC(=O)NCc1nc(-c2ccc(Cl)cc2)no1 | 0.7%
O=S(=O)(NCCc1nnc2ccc(SCc3cccc(Cl)c3)nn12)c1ccccc1 | -0.5%
Cn1c(=O)c2cc(C(=O)N3CCN(c4cccc(C(F)(F)F)c4)CC3)sc2c2ccccc21 | -0.9%
COc1ccc(Cn2c(SCc3ccc(C(=O)NCCc4ccccc4)cc3)nc3cccnc32)cc1 | 63%
CCOc1nc(NC(=O)NS(=O)(=O)Oc2ccccc2)nc(-c2ccccc2)n1 | -0.9%
CCN(CC)C(=O)Cn1c(=O)n(-c2ccc(Cl)cc2)c(=O)c2c3c(sc21)CCC3 | 0.9%
COc1ccc(CC(=O)N2CCc3c([nH]c4ccccc34)C2c2ccc(SC)cc2)cc1 (stereo unspecified) | -8.6%
CCOc1ccc(Cn2c(CNS(=O)(=O)c3ccc(C(C)(C)C)cc3)nc3cccnc32)cc1 | -2.4%
O=C(NCc1ccc(Cl)cc1)c1ccc2c(c1)NC(=O)C(CS(=O)(=O)Cc1ccccc1Cl)N2 (stereo unspecified) | -24%
CCOC(=O)C(C)Sc1ccc2nnc(-c3ccc(OCC)cc3)n2n1 (stereo unspecified) | -5.5%
COC(=O)c1ccc(NC(=O)N2CCN(c3nnc(C)c4c(C)n(-c5ccccc5)nc34)CC2)cc1 | -29%
CCCN(CCC)CCCNC(=O)c1cn(C)c2ccc(S(=O)(=O)N3CCOCC3)cc2c1=O | -3.1%
COc1ccc(OCc2nc3c4c(-c5ccccc5)c(-c5ccccc5)oc4ncn3n2)cc1 | -6.5%
CCc1ccc(-n2nc(C)c3c(C)cc(=O)n(CC(=O)Nc4ccccc4C(=O)OC)c32)cc1 | -1.5%
CCN(CC)c1ccc(NC(=O)c2cnc3c(-c4ccccc4)c(C)nn3c2C)c(C)c1 | 16%
Cc1ccc(SCC(=O)Nc2ccc3oc(-c4cccc(Cl)c4)nc3c2)cc1 | 3.8%
COc1cc(Nc2nc3c(S(=O)(=O)c4ccc(C)c(C)c4)nnn3c3ccsc23)cc(OC)c1 | -27%
CCOc1ccc(CC(=O)Nc2c(C(=O)c3ccc(Cl)cc3)oc3ccccc23)cc1OCC | -0.7%
COc1ccc(Cn2ccn(Cc3cccc(Cl)c3)c(=O)c2=O)cc1 | ?
CC(C)CNc1ncnc2oc(-c3ccco3)c(-c3ccco3)c12 | 4.4%
COc1cc(OC)c(NC(=O)CSCc2nc(-c3ccc(OC)c(OC)c3)no2)cc1Cl | -2.3%
O=c1c2sc3ccccc3c2n(Cc2ccccc2)c(=O)n1Cc1ccccc1 | ?
Cn1c(=O)oc2cc(S(=O)(=O)CCC(=O)N3CCN(c4cccc(Cl)c4)CC3)ccc21 | -1.4%
CCC(O)c1cc2c(cc1NC(=O)c1cccc(Br)c1)OCCO2 (stereo unspecified) | -1.7%
CS(=O)(=O)N1CCc2cc(C(=O)NCCc3ccccc3)ccc21 | -1.2%
C=C1C=C(C(F)F)n2ncc(C(=O)N3CCc4ccccc4C3)c2N1 | -1.6%
COc1ccc(N2Cc3cccc(C(=O)Nc4cccc(F)c4)c3C2=O)cc1 | -5.5%
CCc1ccccc1NC(=O)CCCn1c(=O)c2cccn2c2ccccc21 | -9.7%
CCOC(=O)c1sc2ccccc2c1S(=O)(=O)Nc1c(C)cccc1C | -2.6%
COc1ccc(OCC(=O)NCc2ccc3c(c2)CCN3C(=O)c2cccc(C)c2)cc1 | -0.3%
CC1CCN(c2nc3ccccc3nc2SCC(=O)Nc2ccccc2C(C)C)CC1 | -20%
CCOc1ccccc1NC(=O)Cn1c(=O)n(Cc2ccco2)c(=O)c2ccc(C(=O)NC3CCCC3)cc21 | -3.8%

(continued)
SMILES | ClpP mod
Cc1cccc(CNC(=O)c2ccc(Cn3c(SCc4ccccc4)nc4cccnc43)cc2)c1 | 4.4%
COc1ccc(-c2cc(C(F)(F)F)nc(SCC(=O)N3CCCCC3C)n2)cc1OC (stereo unspecified) | 4.0%
COc1ccc(-n2nc3c(c2NC(=O)C(=O)N2CCN(C)CC2)CSC3)cc1 | -1.1%
CC(C)(C)c1ccc(OCCn2cc(C(=O)c3ccco3)c3ccccc32)cc1 | ?
CC1=C(C(=O)Nc2ccccc2C)C(c2cccs2)n2nc(SCc3ccccc3)nc2N1 (stereo unspecified) | -6.1%
CCn1nc(-c2ccccc2)c(-c2ccccc2)c(C(=O)Nc2nc(C)c(C(C)=O)s2)c1=O | -0.3%
CCCNc1ncnc2c1c(-c1ccccc1)cn2-c1ccc(OCC)cc1 | 25µM*
COc1cccc2cc(C(=O)NCCc3c(C)[nH]c4ccc(F)cc34)c(=O)oc12 | 3.5%
CCn1c(=O)cc(SCC(=O)NCCc2cccc(C)c2)c2ccccc21 | -20%
CCN(CC)S(=O)(=O)c1ccc2c(c1)c(=O)c(C(=O)N1CCN(c3cc(Cl)ccc3C)CC1)cn2C | -4.6%

Reprinted at random: three entries already listed.
SMILES | ClpP mod
CCn1c(=O)cc(SCC(=O)NCCc2cccc(C)c2)c2ccccc21 | -20%
CCn1nc(-c2ccccc2)c(-c2ccccc2)c(C(=O)Nc2nc(C)c(C(C)=O)s2)c1=O | -0.3%
CC1=C(C(=O)Nc2ccccc2C)C(c2cccs2)n2nc(SCc3ccccc3)nc2N1 (stereo unspecified) | -6.1%

(cont.)
SMILES | ClpP mod
O=C(c1ccco1)N(Cc1cccs1)c1ccc(F)cc1 | 0.5%
O=C(Nc1ccc(Cl)cc1Cl)c1cc(S(=O)(=O)N2CCC3(CC2)OCCO3)ccc1F | -20%
CCOC(=O)c1cc(-c2ccc(C)cc2)n(CCC(=O)Nc2nc3c(C)cccc3s2)c1C | -14%
Fc1cccc(Cl)c1CNCCSc1nnnn1-c1ccccc1 | -2.2%
COc1cccc(N2CCN(C(=O)C3CCN(S(=O)(=O)c4c(C)noc4C)CC3)CC2)c1 | 1.0%
COc1ccc(-n2c(=O)c3sc4ccccc4c3n(CC(=O)Nc3ccccc3F)c2=O)cc1 | -23%
COc1ccc(OC)c(CNc2ncc(-c3ccc(Cl)cc3)n2C)c1 | -6.4%
CCCNS(=O)(=O)c1ccc2nc(NC(=O)c3ccc(F)cc3)sc2c1 | 1.4%
Cc1cc(C)cc(NC(=O)c2sc3nc4n(c(=O)c3c2C)N=C(c2ccc(F)cc2)CS4)c1 | -0.6%
CCC(=O)N1CCc2cc(Br)cc(S(=O)(=O)CCC(=O)Nc3ccc(C)c(F)c3)c21 | 0.8%

Shown with each value named: 3 of the compounds above
O=C(Nc1ccc(Cl)cc1Cl)c1cc(S(=O)(=O)N2CCC3(CC2)OCCO3)ccc1F
  ClpP mod: -20%

Fc1cccc(Cl)c1CNCCSc1nnnn1-c1ccccc1
  ClpP mod: -2.2%

O=C(c1ccco1)N(Cc1cccs1)c1ccc(F)cc1
  ClpP mod: 0.5%

Next part.
SMILES | ClpP mod
O=[N+]([O-])c1nccn1C1C=CC(O)C(CO)O1 (stereo unspecified) | 0.4%
CCOc1ccc(S(=O)(=O)N2CCN(c3ccc(Cl)c(Cl)c3)CC2)c2ccccc12 | -2.7%
COC(=O)c1ccc(Nc2nnc(-c3ccc(C)c(S(=O)(=O)N4CCN(C)CC4)c3)c3ccccc23)cc1 | -6.5%
COc1cccc(-c2cc(C(F)(F)F)nc(NCCc3ccccc3)n2)c1 | 28µM*
CCn1c(=O)c2cc(C(=O)NCc3cc(OC)ccc3OC)sc2c2ccccc21 | -6.2%
COc1ccc(NC(=O)C2CCN(c3nc4ccccc4[nH]3)CC2)cc1OC | -0.9%
COc1ccc(-n2cc(C(=O)Oc3cc(C)cc(C)c3)c3ccccc3c2=O)cc1 | -3.3%
Fc1ccc(-c2nc(Nc3cccc(Cl)c3)nc3c2COc2ccccc2-3)cc1 | -26%

Screens: PubChem BioAssay, National Center for Advancing Translational Sciences (NCATS)
